# Insulin prom inh – TRM-6 insulin promoter activity inhibition; TRM-6 cells (human fetal islet line), insulin promoter-eGFP reporter, imaging; reporter expression induced with tamoxifen; inhibition, % at 2 µM; 130,000 tested, 0.9% active; AID 1273;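 active means inhibition above the mean plus 3 SD, with well images judged a real hit on visual review, cut at about 60% in these data, passing the limit was not always enough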
# PKD1 kinase inh – PKD1 (human) kinase inhibition; Q15139; PKD1 kinase fluorescence polarization assay; inhibition, %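 (about 10 µM by stock and volumes)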; 200,000 tested, 0.056% active;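 active means inhibition of 50% or more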;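 further: controls were vehicle for no effect and a reference inhibitor for full effect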
# RGS16-Gao HTS – RGS16-Galphao interaction regulator (human). O15492+P09471. bead-based flow cytometry RGS16-Galphao binding, fluorescence; actives lie on both sides. binding response (% of control), % at 10 µM. 220,000 tested, 0.38% active. AID 1441;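 active means below 25% or above 175%, edge rows of some plates excepted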;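 further: Galphao activated by GDP with aluminum fluoride before binding; 100% = wells without compound and 0% = beads without RGS; some results beyond the cut were filed as inactive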
# Target sequence (O15492 whole entry, looked up): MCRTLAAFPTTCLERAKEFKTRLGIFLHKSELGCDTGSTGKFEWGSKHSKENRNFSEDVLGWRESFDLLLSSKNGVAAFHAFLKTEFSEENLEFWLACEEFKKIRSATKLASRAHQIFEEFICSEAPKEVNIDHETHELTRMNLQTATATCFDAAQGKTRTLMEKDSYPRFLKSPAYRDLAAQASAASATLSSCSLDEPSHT
# Target sequence (P09471 whole entry, looked up): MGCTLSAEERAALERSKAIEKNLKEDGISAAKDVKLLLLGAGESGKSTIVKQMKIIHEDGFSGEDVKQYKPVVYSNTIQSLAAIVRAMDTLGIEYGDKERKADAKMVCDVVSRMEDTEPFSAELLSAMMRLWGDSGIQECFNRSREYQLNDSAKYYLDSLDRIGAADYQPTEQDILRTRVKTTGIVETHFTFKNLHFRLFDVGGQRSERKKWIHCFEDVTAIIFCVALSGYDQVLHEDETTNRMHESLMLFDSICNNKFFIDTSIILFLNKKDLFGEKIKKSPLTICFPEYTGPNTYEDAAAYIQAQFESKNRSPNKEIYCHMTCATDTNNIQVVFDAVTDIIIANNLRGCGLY
# GALR2 ag – GALR2 (human) receptor agonism. O43603. GALR2-expressing cells, agonist activation read-out. activation, %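 (tested at 5 µM)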. 140,000 tested, 0.48% active;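 active means above mean plus 3 SD of all compounds, about 5% in these data, not always enough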;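 further: 0% = vehicle buffer wells and 100% = reference agonist at full effect; tested in CHO reporter cells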
# Target sequence (O43603 whole entry, looked up): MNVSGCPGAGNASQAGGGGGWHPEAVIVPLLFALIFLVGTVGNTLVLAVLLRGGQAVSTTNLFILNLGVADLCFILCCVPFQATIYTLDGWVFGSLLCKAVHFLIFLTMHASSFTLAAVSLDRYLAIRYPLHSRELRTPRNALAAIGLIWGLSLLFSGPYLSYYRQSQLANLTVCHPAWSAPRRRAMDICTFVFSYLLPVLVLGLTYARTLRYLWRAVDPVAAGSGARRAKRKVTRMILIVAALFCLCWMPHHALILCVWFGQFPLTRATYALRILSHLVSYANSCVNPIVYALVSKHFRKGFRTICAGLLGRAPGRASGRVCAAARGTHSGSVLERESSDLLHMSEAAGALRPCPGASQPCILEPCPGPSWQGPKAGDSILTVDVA
# HSV augment – increases HSV replication in cells. maximum fold increase. 220,000 tested, 0.005% active. AID 1956. HSV replication augmentation in cells, fold increase;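 active means peak rise of 1.5-fold or more in the series; tested in PC3 cells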;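 further: first round at 10 µM; read as green reporter fluorescence; hits show the peak of a series up to 25 µM; 1 = signal of infected wells without compound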
# Insulin prom inh cell count – also measured in Insulin prom inh; calls as there; normalized cell count, %; measured here: cell count, toxicity; reference of the scale not given here;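 cells exposed to compound for 48 h; stained nuclei by imaging scaled within each plate; lower means fewer cells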
# HSV augment primary fold – recorded beside HSV augment, whose call it bears; fold increase; compound at 10 µM; measured here: primary screen fold increase 10 uM; tested in PC3 cells;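 GFP signal in the first replicate; 1 = infected wells without compound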
# The depositor's hits bear a star; i = inactive; / = no result given. Rows were taken by chance. About 1.3% of those tested had a hit in this group.
SMILES,Insulin prom inh,Insulin prom inh cell count,PKD1 kinase inh,RGS16-Gao HTS,GALR2 ag,HSV augment,HSV augment primary fold
NC(=O)c1nnn(-c2ccccc2)c1N,/,/,0,177,/,i,0.99
COc1ccc(CCNC(=O)CSc2nnc(CNc3ccc(Cl)cc3)o2)cc1OC,-46,139,-1,108,-2.0,i,1.1
CCc1cc(C(=O)c2ccccc2OC)c(N)s1,/,/,-9,106,-2.1,i,0.66
O=C(CSc1ncnc2ccccc12)Nc1cccc(S(=O)(=O)N2CCOCC2)c1,/,/,-3,103,/,i,1
Cc1ccc2nc(-c3sc4nc(C)cc(C)c4c3N)[nH]c2c1,44,184,-1,154,4.3,i,0.92
COc1ccc(/C=C/c2nc(N)nc(-c3ccccc3O)n2)cc1OC,36,91,7,105,2.1,i,0.82
N=c1sccn1CC(=O)Nc1cccc(Oc2ccccc2)c1,7,58,-14,76,-4.0,/,/
CN(C)N1C(N)=C(C#N)C(c2ccsc2)C2=C1CCCC2=O (configuration not stated),29,51,-7,47,-0.5,i,1.1
CCOC(=O)C1Cn2c(nc3c(c2=O)C(C)(CC)Cc2ccccc2-3)S1 (configuration not stated),/,/,1,91,1.1,i,1
O=C(OCC(=O)c1cccs1)c1ccccc1,/,/,-3,98,0.1,i,0.92
O=C(C1c2ccccc2C(=O)N2CCc3ccccc3C12)N1CCN(Cc2ccccc2)CC1 (configuration not stated),17,109,-7,105,-2.8,i,1.1
Cc1ccc(/C=C2/NC(=O)N(Cc3ccccc3F)C2=O)o1,/,/,-2,94,0.1,i,1.3
COc1ccc(NC(=O)CCC(=O)OCc2ccc(C(=O)Oc3ccc(Cl)cc3)cc2)cc1,/,/,-9,97,-2.5,i,0.8
Cc1nc(=O)c(-c2ccccc2)c(C)n1CCO,-6,84,-5,105,-2.0,i,0.92
COC(=O)c1ccccc1NC(=O)c1c(O)c2c([nH]c1=O)CCCC2,0,137,-12,101,0.1,i,0.99
O=C(CN1CCCCC1)N1CCCc2ccccc21,0,113,4,94,0.8,i,1
O=C(Nc1nnc(-c2ccncc2)o1)c1ccccc1F,/,/,9,103,/,i,0.75
Cc1cccc(C)c1NC(=S)Nc1ccc(F)cc1,/,/,2,102,/,i,0.97
CCOC(=O)Cn1c(-c2cccnc2Cl)nc2cc(Cl)c(Cl)cc21,22,119,0,106,-0.5,i,0.96
O=C1NCN(c2ccccc2)C12CCN(c1nnnn1-c1ccccc1)CC2,-39,129,-6,96,0.6,i,1
O=C(NC1=NCCS1)c1ccc(N2CCCC2=O)cc1,/,/,-7,100,/,i,1
Cc1ccccc1OCC(=O)N(Cc1nc(-c2ccccc2)no1)C(C)C,-27,129,-5,117,-3.3,i,0.76
COCCNC(=O)c1ccc(CS(=O)(=O)c2ccc(OC)cc2)o1,/,/,-5,102,0.0,i,1
CN1C(=O)OC2(C)CCc3ccccc3C12C (configuration not stated),/,/,9,90,-0.6,i,1
CCOC(=O)c1csc(Nc2nc3ccc(F)cc3s2)n1,/,/,3,101,-1.9,/,/
CC(=O)N1N=C(c2ccccc2)CC1c1ccccc1[N+](=O)[O-] (configuration not stated),0,40,-10,90,-2.6,i,1
Cn1c(=O)c(Sc2ccccc2)c(O)c2ccccc21,/,/,/,103,/,i,1
O=C(CCN1C(=O)/C(=C\c2ccccc2)SC1=S)NNC(=O)c1ccncc1,/,/,/,95,/,i,1.2
O=C(CSCc1ccco1)Nc1cc(C(F)(F)F)ccc1N1CCOCC1,-55,72,-2,98,-0.1,i,0.87
O=C(CN1CCC(NC(=O)c2ccco2)CC1)Nc1cccc2ccccc12,13,135,-7,109,-2.4,i,0.93
Brc1nnc2n1-c1ccccc1Sc1ccccc1-2,10,118,4,108,-1.2,i,1
CC(C)(C)C(=O)Nc1ccc(C(=O)N/N=C/c2ccccc2OC(=O)c2ccc(Cl)cc2Cl)cc1,-58,103,-6,107,-0.9,i,0.96
COc1cccc(C(=O)/C=C2\Sc3ccccc3N2C)c1,/,/,-6,99,/,i,0.82
CCOc1ccc(C(Nc2cccnc2)c2cc(Cl)c3cccnc3c2O)cc1 (configuration not stated),/,/,-3,100,/,i,1.1
Cc1cccc(-n2c(Cc3cc(=O)[nH]c(=O)[nH]3)nnc2SC(C)C)c1,/,/,0,90,-0.8,i,0.81
CCCCCCNC(=O)c1cc(-c2ccco2)nc2ccccc12,65,97,-5,93,-1.7,i,0.91
Cc1ccc(C(=O)CSc2nc3ccc(C(=O)NCCN4CCCCC4)cc3c(=O)[nH]2)cc1,/,/,/,97,/,i,0.92
COc1cc(C)c(-c2cc(C(=O)O)c(C)o2)cc1C(C)C,35,106,1,100,-1.4,i,0.95
CCS(=O)(=O)N1CCN(C2CCC(c3ccccc3)CC2)CC1 (configuration not stated),/,/,13,105,-0.8,i,1.1
CC(C)CN1CCC(=O)N([C@H](CSc2ccc(Br)cc2)c2ccccc2)CC1,/,/,/,107,/,i,0.93
Cc1ccnc(SCC(=O)c2cccs2)n1,36,91,-4,101,/,i,0.9
Cc1cc2oc(=O)cc(COC(=O)Cn3cnnn3)c2cc1C(C)C,-10,139,-18,103,-1.9,i,0.83
CCOc1ccc(CN2CCNC(=O)C2CC(=O)NCc2ccccn2)cc1 (configuration not stated),/,/,3,97,/,i,1.1
Cc1ccsc1C(=O)OCC(=O)NCCCc1ccccc1,/,/,-1,106,/,i,1.1
CCC1(C)Cc2c(sc3nc(SC)[nH]c(=O)c23)CO1 (configuration not stated),/,/,/,99,/,i,1
COc1ccc(C(=O)Nc2cccc(-c3nnc(-c4ccco4)o3)c2)cc1,43,126,1,105,-1.7,i,0.83
Cc1cccc(-n2c(SCc3cc(=O)n4ccsc4n3)nc3ccccc32)c1,-7,76,0,95,0.6,/,/
Cc1c(C(=O)NCC2COc3ccccc3O2)oc2ccc(S(=O)(=O)N3CCOCC3)cc12 (configuration not stated),39,104,-11,101,-0.9,/,/
COc1ccc2[nH]c(N=Nc3ccccc3C)c(O)c2c1,19,108,-12,102,-0.5,i,0.88
CCCc1cc(C(=O)OC)c(NC(=O)OCC)s1,26,60,-20,101,2.2,i,1

# The results go on:
SMILES,Insulin prom inh,Insulin prom inh cell count,PKD1 kinase inh,RGS16-Gao HTS,GALR2 ag,HSV augment,HSV augment primary fold
Nc1ccc2c(c1)-c1ccccc1S(=O)(=O)N2,/,/,-11,91,-0.5,i,0.94
Cc1nc2cc(-c3cccc(F)c3)nn2c(C)c1CCC(=O)NC(C)CCc1ccco1 (configuration not stated),/,/,-4,106,-1.8,i,0.95
COCCNc1ncnc2c1[nH]c1ccccc12,/,/,/,101,/,i,1.1
O=C(Nc1ccon1)c1ccc(Cl)s1,-13,77,-8,42,-1.6,i,0.96
O=c1[nH]c(CSc2nnc(COc3ccccc3)n2-c2ccccc2)nc2ccccc12,-11,80,4,96,-2.6,i,0.6
COc1cc(NC(=O)c2noc3c2CCC3)c(OC)cc1Cl,16,72,5,22,-0.6,i,0.83
COc1ccc(F)cc1S(=O)(=O)N1CCCC(C)C1 (configuration not stated),9,50,-2,99,-1.5,i,0.85
O=C(NCCc1c[nH]c2ccccc12)C(=O)NCC1OCCCN1S(=O)(=O)c1ccc(F)cc1 (configuration not stated),-50,146,1,106,-1.3,i,0.91
Cc1ccc2c(c1)COc1c3ccc(C(=O)N4CCCCC4)cc3nn1-2,/,/,/,101,/,i,0.85
O=C(CN1CCCC1)OCCCC1CCCCC1,/,/,/,101,/,i,0.95
Cc1nn(C(C)C(=O)O)c(=O)c2ccccc12 (configuration not stated),/,/,6,67,/,i,0.94
Cc1ccccc1-c1noc(-c2ccccc2C(=O)NCc2ccco2)n1,/,/,/,103,/,i,0.93
Cc1ccc(NC(=S)Nc2cccc3cnccc23)c(C)c1,13,95,-4,98,/,i,0.85
CCC(c1nnnn1C(C)(C)CC)N1CCN(c2ccccc2F)CC1 (configuration not stated),/,/,-6,115,/,i,1.1
CCOC(=O)N1CCN(Cc2nc(N)nc(Nc3ccc(Cl)cc3)n2)CC1,-118,112,-4,89,/,i,0.99
CC1=C(C(=O)Nc2ccccn2)C(c2ccccc2Cl)NC(=S)N1 (configuration not stated),-30,99,-2,110,/,i,1
Cc1ccc2cccc(OCC(=O)Nc3ccc4c(c3)OCO4)c2n1,29,99,0,97,/,i,0.82
CCc1ccc(-c2csc3[n+]2CCN3C(C)=O)cc1,26,63,-2,96,1.2,i,1
COc1ccc(C2=NN(C(=O)CCCC(=O)O)C(c3cccs3)C2)cc1OC (configuration not stated),/,/,-5,99,/,i,1.1
CS(=O)(=O)c1cccc(C(=O)NCc2ccccc2)c1,-28,102,-5,91,-0.4,i,1
CC(C)C[C@H](NC(=O)OC(C)(C)C)C(=O)N/N=C/C1=Cc2ccccc2OC1C (some centres not stated),40,148,1,99,-1.2,i,0.86
COc1ccccc1OCc1ccc(C(=O)Nc2ccccc2F)cc1,/,/,-4,104,-1.3,i,0.88
CC(/C=N\NC(=O)Cn1cncn1)=C/c1ccc(C(C)C)cc1,/,/,/,93,/,i,0.93
CC(C)CC(NS(=O)(=O)c1cc(C(=O)O)ccc1Cl)C(=O)O (configuration not stated),/,/,-1,112,/,i,1
CCOC(=O)CNC(=O)CSc1nc(-c2cccc(C)c2)ns1,/,/,-11,104,/,i,1

# Ordered by heavy-atom count (low to high): 15 of the compounds above.
SMILES,Insulin prom inh,Insulin prom inh cell count,PKD1 kinase inh,RGS16-Gao HTS,GALR2 ag,HSV augment,HSV augment primary fold
O=C(Nc1ccon1)c1ccc(Cl)s1,-13,77,-8,42,-1.6,i,0.96
Cc1nn(C(C)C(=O)O)c(=O)c2ccccc12 (configuration not stated),/,/,6,67,/,i,0.94
COCCNc1ncnc2c1[nH]c1ccccc12,/,/,/,101,/,i,1.1
COc1ccc(F)cc1S(=O)(=O)N1CCCC(C)C1 (configuration not stated),9,50,-2,99,-1.5,i,0.85
CS(=O)(=O)c1cccc(C(=O)NCc2ccccc2)c1,-28,102,-5,91,-0.4,i,1
COc1cc(NC(=O)c2noc3c2CCC3)c(OC)cc1Cl,16,72,5,22,-0.6,i,0.83
CC(/C=N\NC(=O)Cn1cncn1)=C/c1ccc(C(C)C)cc1,/,/,/,93,/,i,0.93
CC1=C(C(=O)Nc2ccccn2)C(c2ccccc2Cl)NC(=S)N1 (configuration not stated),-30,99,-2,110,/,i,1
Cc1ccc2cccc(OCC(=O)Nc3ccc4c(c3)OCO4)c2n1,29,99,0,97,/,i,0.82
CCC(c1nnnn1C(C)(C)CC)N1CCN(c2ccccc2F)CC1 (configuration not stated),/,/,-6,115,/,i,1.1
Cc1ccccc1-c1noc(-c2ccccc2C(=O)NCc2ccco2)n1,/,/,/,103,/,i,0.93
COc1ccc(C2=NN(C(=O)CCCC(=O)O)C(c3cccs3)C2)cc1OC (configuration not stated),/,/,-5,99,/,i,1.1
CC(C)C[C@H](NC(=O)OC(C)(C)C)C(=O)N/N=C/C1=Cc2ccccc2OC1C (some centres not stated),40,148,1,99,-1.2,i,0.86
O=c1[nH]c(CSc2nnc(COc3ccccc3)n2-c2ccccc2)nc2ccccc12,-11,80,4,96,-2.6,i,0.6
O=C(NCCc1c[nH]c2ccccc12)C(=O)NCC1OCCCN1S(=O)(=O)c1ccc(F)cc1 (configuration not stated),-50,146,1,106,-1.3,i,0.91

# Source: PubChem BioAssay
